Screening results (PubChem BioAssay)
RE007 growth inh: less growth of the S. pombe RE007 Vpr strain; Potency, µM (titrated, usually from 92.2 µM), inactives show at the highest dose activity change, negative = less growth; AID 651644; hit rate 0.21% among 360,000; S. pombe RE007 Vpr strain, BacTiter-Glo ATP luminescence, 24 h; control for the full effect not named in the record; active = well fitted falling curve with a large enough effect; inconclusive = small, poorly fitted or top-dose-only effect; inactive = no such curve, though single readings can be large or run the other way;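 note: % is set by controls: 0 for no effect and ±100 for the full control effect; nearly all actives have a fitted effect of over 50% in size; the assay follows cell death caused by Vpr and the record does not say whether a fall means rescue or toxicity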
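Fission yeast strain RE007, carrying one chromosomally integrated HIV-1 vpr copy, was seeded at OD 0.01 in PMG+AL medium with 23 nL pinned compound. After 24 h at 30 °C and 99% humidity, viability was read by BacTiter-Glo luminescence.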
Cruzain noTriton: inhibitors of Trypanosoma cruzi cruzain without detergent; Potency, µM, inactives show max response, negative = inhibition, actives largely listed as inhibitors; hit rate 2.3% among 200,000; P25779; purified cruzain, Z-FR-AMC fluorescence, no detergent;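 note: plate controls were enzyme without inhibitor for no effect and buffer without enzyme for full effect; nearly all actives have a fitted effect of over 40% in size; top concentration of the series not given in the record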
Target sequence (P25779 123-467 limits assumed): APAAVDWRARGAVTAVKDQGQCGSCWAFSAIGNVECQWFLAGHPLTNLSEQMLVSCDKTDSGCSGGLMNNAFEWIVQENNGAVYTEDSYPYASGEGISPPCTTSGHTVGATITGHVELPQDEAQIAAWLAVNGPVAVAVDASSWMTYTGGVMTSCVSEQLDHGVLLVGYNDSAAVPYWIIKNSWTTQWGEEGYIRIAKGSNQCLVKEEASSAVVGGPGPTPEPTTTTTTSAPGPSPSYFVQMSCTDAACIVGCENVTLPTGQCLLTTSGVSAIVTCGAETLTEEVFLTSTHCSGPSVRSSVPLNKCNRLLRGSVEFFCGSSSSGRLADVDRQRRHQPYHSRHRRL
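Purified cruzain at 1.5 nM, pre-incubated 15 min with compound at room temperature in 100 mM sodium acetate pH 5.5, 5 mM DTT, 0.00005% Triton X-100. Reaction started with 2 uM Z-FR-AMC; AMC fluorescence increase over 60 s gives rate.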
SARS PLpro yeast: blocks SARS-CoV papain-like protease in a yeast assay; S. cerevisiae expressing SARS-CoV PLpro, growth rescue; control for the full effect not named in the record; Potency, µM (titrated, usually from 32.9 µM), inactives show top-dose activity, positive = growth rescue; hit rate 0.19% among 330,000; AID 485353; active means well fitted rising curve with a large enough effect; inconclusive means small, poorly fitted or top-dose-only effect; inactive means no such curve, though single readings can be large or run the other way; note: 0% is about no effect; nearly all actives have a fitted effect of over 55% in size; growth read by luminescence after 48 h
Cruzain inh Det: blocks cruzain activity in presence of Triton detergent; P25779; purified cruzain, Z-FR-AMC fluorescence, 0.01% Triton; Potency, µM, without a hit: max response, negative = inhibition, most hits filed as inhibitors; hit rate 0.43% among 200,000;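 note: plate controls were neutral wells for no effect and buffer without enzyme for full effect; nearly all actives have a fitted effect of over 40% in size; top concentration of the series not given in the record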
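In this qHTS format, compounds are incubated with 1.5 nM cruzain for 15 min at room temperature before 2 uM Z-FR-AMC is added. Release of AMC is followed at 360/450 nm, and progress is taken as the 60 s fluorescence difference.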
NS1 function inh: blocks influenza NS1 protein function; AID 2326; S. cerevisiae slowed by influenza A NS1, growth recovery by OD600; Potency, µM (doses to about 46.1 µM), for the others: top-dose activity, positive = more growth; hit rate 0.4% among 270,000; active means well fitted rising curve with a large enough effect; inconclusive means small, poorly fitted or top-dose-only effect; inactive means no such curve, though single readings can be large or run the other way; note: nearly all actives have a fitted effect of over 50% in size
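Compounds were scored for reversing the slow growth caused by influenza A NS1 in S. cerevisiae, measured by optical density at 600 nm. Assay medium contained 2% galactose at pH 6.0; NS1-free yeast of the same strain were the positive control.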
StopGo reporter: FMDV 2A StopGo reporter, luciferase signal | human cells with a luciferase reporter of 2A StopGo recoding; control for the full effect not named in the record | Potency, µM (titrated, usually from 57.9 µM), for inactives: top-dose signal change, negative = less light | hit rate 1.2% among 410,000; active = well fitted falling curve with a large enough effect; inconclusive = small, poorly fitted or top-dose-only effect; inactive = no such curve, though single readings can be large or run the other way; tested in HEK293T cells; note: % is set by controls: 0 for no effect and ±100 for the full control effect; nearly all actives have a fitted effect of over 45% in size; luciferase light after 4 h
LASV entry inh: Lassa virus entry inhibition; Lassa virus pseudotype entry inhibition, cell reporter; control for the full effect not named in the record; Potency, µM (titrated, usually from 37.9 µM), for inactives: at the top dose activity change, negative = inhibition, usual class: inhibitors; hit rate 1.2% among 300,000; AID 540256; active means well fitted inhibition curve with a large enough effect; inconclusive means small, poorly fitted or top-dose-only effect, or effect the other way; inactive means flat fitted curve, though single readings scatter; tested in HEK293 cells; note: % is set by controls: 0 for no effect and ±100 for the full control effect; nearly all actives have a fitted effect of over 50% in size; luciferase read-out
Marburg entry inh: inhibitors of Marburg virus binding or cell entry | Marburg virus pseudotyped entry inhibition, cell reporter; control for the full effect not named in the record; about a third of the inactives were read at about 46 µM | Potency, µM (titrated, usually from 37.8 µM), inactives show at the highest dose activity change, negative = inhibition, usual class: inhibitors | hit rate 1.8% among 300,000; active = well fitted inhibition curve with a large enough effect; inconclusive = small, poorly fitted or top-dose-only effect, or effect the other way; inactive = flat fitted curve, though single readings scatter; tested in HEK293 cells; about a fifth of its hits are not listed in these tables; note: % is set by controls: 0 for no effect and ±100 for the full control effect; luciferase read-out
An asterisk follows results filed as active; ? = inconclusive; nt = not tested or not shown; & = joins results of further samples; [ ] = remark or other dose. Unless noted, calls come from the whole dose curve; as a rule, active = well fitted curve in the direction sought with a large enough effect; inconclusive = small, poorly fitted or top-dose-only effect, or another doubt; inactive = no such curve, though single readings can be large; an effect the other way counts as inactive or inconclusive. Potency is the fitted concentration of half-maximal effect. Outcome played no part in choosing rows; 4.7% or so of the library scored in one or more.

smiles	RE007 growth inh	Cruzain noTriton	SARS PLpro yeast	Cruzain inh Det	NS1 function inh	StopGo reporter	LASV entry inh	Marburg entry inh
CCCCN(CC)C(=O)/C=C/c1cccc([N+](=O)[O-])c1	-17.5%	1.1%	-6.0%	-0.6%	-9.7%	-9.6%	?	9.9%
COc1ccc(NC(=O)C2CCCN(S(=O)(=O)c3ccc4c(c3)oc(=O)n4C)C2)c(OC)c1 (stereo unspecified)	1.4%	?	-0.2%	4.2%&4.8%	-3.7%	-9.9%&-16.6%	0.4%[46.1 µM]	7.5%[46.1 µM]
Clc1ccc(N2COC3c4cccc5cccc(c45)C32)cc1 (stereo unspecified)	15.2%	-21.3%	-26.8%	-4.4%	5.6%	-21.4%	15.2%	-18.3%
CCOC(=O)Cc1csc(NC(=O)c2ccncc2)n1	21.5%	5.6%	7.7%	3.3%	-8.4%	?	-7.9%	?
Cc1cc2c(cc1S(=O)(=O)N(C)CC(=O)Nc1ccc(C#N)cc1)OCC(=O)N2	nt	1.7%	nt	2.0%	nt	0.0%	-0.6%[46.1 µM]	nt
CCCCC(CC)CNC(=O)Cc1ccc(-n2c(=O)[nH]c3ccccc3c2=O)cc1 (stereo unspecified)	nt	26.1%	nt	-1.4%	nt	-18.1%	?	nt
O=C(CSc1nc(-c2ccccc2)c(-c2ccccc2)o1)N1CCOCC1	-2.7%	?	8.0%	-9.3%	-37.7%	-39.5%	?	?
Cc1ccnn1CC(=O)N/N=C/c1ccc([N+](=O)[O-])s1	0.4%	nt	-1.8%	nt	-2.9%	-15.7%	nt	nt
O=C(NCCCn1ccnc1)c1ccco1	1.2%	9.1%	26.0%	-0.8%	12.4%	9.4%	-0.7%	?
COc1ccc(NC(=O)NNS(=O)(=O)c2cc(C)ccc2C)cc1OC	13.3%	nt	-5.4%	nt	-6.7%	-10.1%	-10.9%	?
COc1cc2c(C(=O)Nc3ccc4c(c3)OCO4)cn(CC(C)C)c(=O)c2cc1OC	nt	?	1.0%	-8.7%	-2.2%	nt	nt	nt
Cn1c(-c2ccc3c(c2)OCO3)cnc1NC(=O)CCC(=O)NCCc1ccccc1	-5.0%	-3.6%	-2.9%	-1.5%	-11.0%	57.4%[activator]	4.5%	12.8%
CCOc1ccc(N2CC(C(=O)NC3=NCCS3)CC2=O)cc1 (stereo unspecified)	-17.6%	nt	-0.2%	nt	0.6%	-16.1%	nt	nt
COC(=O)C(Cc1cnc(Cl)s1)(C(=O)OC)c1ccc([N+](=O)[O-])cc1	8.1%	6.9%	-7.2%	-5.8%	1.3%	-24.6%	-12.3%	-23.3%[46.1 µM]
CCC(C)NC(=O)CN(C1CCCCC1)S(C)(=O)=O (stereo unspecified)	-11.3%	nt	1.3%	nt	nt	-8.5%	13.2%	3.6%[46.1 µM]
Cc1ccc2nc(-c3ccc(O)cc3)c(Nc3ccc4c(c3)OCCO4)n2c1	-14.8%	-4.6%&-13.2%	-4.4%	-10.8%&-5.5%	3.2%	28.9%&20.9%	-4.7%[46.1 µM]	21.8%[46.1 µM]
CCN(CC(=O)Nc1c(F)cccc1F)C(=O)Cc1ccc(S(=O)(=O)N2CCOCC2)s1	-16.9%	nt	-3.7%	nt	nt	-16.0%	14.3%	-13.9%
CCCn1c(=O)c2sccc2n2c(CCCC(=O)NC3CCCCC3)nnc12	nt	5.2%	nt	-0.6%	nt	-2.1%	20.6%[46.1 µM]	nt
Cc1ccc(Cl)cc1N1CCN(C(=O)c2nn(C)c3c2CS(=O)(=O)c2ccccc2-3)CC1	nt	-14.3%	nt	-2.1%	nt	?	-7.7%[46.1 µM]	nt
Cc1ccc(C)c(NC(=O)Cn2nnc(C(=O)NCc3ccco3)c2N)c1	2.1%	-20.1%	-2.8%	-0.1%	13.2%	-4.0%&21.4%	26.4%[46.1 µM]	nt
O=C(Nc1cccc(C(=O)N2CCN(c3ccc(Cl)cc3)CC2)c1)c1nsc2ccccc12	nt	20µM*	nt	0.4%	nt	0.0%	?	nt
Oc1ccc(CNC2CCCCC2)cc1	3.2%	-3.5%	3.5%	2.9%	-0.3%	-24.0%	-4.3%	8.5%[46.1 µM]
C/C(CC(=O)Nc1cccnc1)=N/NC(=O)COc1ccc(Cl)cc1Br	-9.3%	nt	-0.5%	nt	5.8%	-9.1%	0.3%[46.1 µM]	-20.6%[46.1 µM]
COc1ccc(Cl)cc1NC(=O)C(C)N1CCc2ccccc21 (stereo unspecified)	4.1%	nt	-10.6%	nt	nt	0.0%	-20.3%	?
O=S(=O)(NCCc1nnc2ccc(SCc3ccc(C(F)(F)F)cc3)nn12)c1ccccc1	nt	?	nt	-10.5%	nt	-17.7%	-18.1%[46.1 µM]	nt
CC1CN(S(=O)(=O)c2cccc(C(=O)NNC(=O)C(C)Oc3ccccc3F)c2)CC(C)O1 (stereo unspecified)	0.0%	nt	-3.5%	nt	nt	10.4%	-14.1%	-7.3%[46.1 µM]
Cc1ccc(C(=O)CC2(O)C(=O)N(C)c3ccc(Br)cc32)c(C)c1 (stereo unspecified)	5.1%	9.9%	-0.8%	-5.4%	-30.8%	?	nt	0.0%
O=C(Nc1ccncc1)c1cc(-c2ccccn2)nc2ccc(Br)cc12	-14.5%	nt	0.7%	nt	3.4%	5.6%	-4.1%	-2.1%
Cn1cc(C(F)(F)F)nc1-c1ccc(OC[C@@H](O)CNCCOc2ccc(O)c(C(N)=O)c2)cc1	nt	5.3%	nt	-1.2%	nt	-18.8%	nt	2.7%&2.7%
CCCCC(CCC(=O)Nc1ccccc1C(=O)OCC)C(=O)O (stereo unspecified)	8.1%	-2.1%	-5.3%	0.5%	2.6%	-0.1%	-3.9%	-3.1%[46.1 µM]
Cc1nc(C(F)(F)F)nc(Nc2ccc(N=Nc3ccccc3)cc2)c1C#N	17.9%	2.7%	?	-6.6%	8.7%	10.3%	12.9%	?
Cc1c(Cl)cccc1NC(=O)CCC(=O)N/N=C/c1ccco1	-4.7%	nt	1.6%	nt	-9.3%	-10.7%	3.3%[46.1 µM]	13.1%[46.1 µM]
Cc1ccc(S(=O)(=O)N2CCCCC2)cc1C(=O)NC1CC(C)(C)NC(C)(C)C1	7.0%	nt	-4.5%	nt	nt	-15.4%	7.0%	13.2%[46.1 µM]
COc1ccc(Cc2nnc(SCC(=O)NC(C)c3ccccc3)o2)cc1 (stereo unspecified)	7.7%	0.3%	-3.1%	2.2%	-5.3%	10.4%	?	-24.7%
Cc1[nH]c(C)c(S(=O)(=O)NCc2ccccc2Cl)c1C(=O)N1CCCC1	2.0%	nt	17.1%	nt	8.6%	30.1%[activator]	nt	nt
CN(c1ccccc1C(=O)NC1CCCCC1)S(=O)(=O)c1ccccc1	2.0%	nt	16.6%	nt	-2.4%	5.0%	17.1%[46.1 µM]	-21.3%[46.1 µM]
Cc1ccc(NC(=O)c2oc3ccccc3c2NC(=O)C23CC4CC(CC(C4)C2)C3)cc1	nt	?	nt	-0.5%	nt	5.8%	20.4%[46.1 µM]	-13.4%[46.1 µM]
CC(OC(=O)c1cccc(O)c1)C(=O)N(C)Cc1ccccc1 (stereo unspecified)	12.8%	nt	-1.6%	nt	nt	?	?	-1.2%
O=C(CC1C(=O)NCCN1Cc1ccc(F)cc1Cl)NC1CCCCCCC1 (stereo unspecified)	-14.8%	nt	-5.0%	nt	13.1%	-5.7%	3.0%	?
CN1CCN(CC#CCOc2ccc(Cl)cc2)CC1	9.2%	nt	2.2%	nt	1.6%	25.5%	nt	nt
Cc1[nH]n(-c2ccc(F)cc2)c(=O)c1/C=N/c1sc2c(c1C#N)CCCC2	-4.8%	?	-1.1%	-1.3%	1.5%	?	-2.4%	?
COc1ccc(CN2CCN(c3ccccc3F)CC2)cc1O	6.6%	-0.1%	10.2%	-2.6%	18.6%	-21.6%	12.3%	6.1%
Nc1ccc2c(c1)Nc1ccccc1CC2	-9.4%	nt	-1.7%	nt	6.0%	26.3%	nt	nt
CC(=O)c1c(C)n([O-])c2ccc(C)cc2[n+]1=O	-0.7%	1.58µM*	-0.6%	-0.1%	-0.7%	1.0%	22.7%	22.1%
COc1cccc(OCCOc2ccc(/C=C3/SC(=S)NC3=O)cc2)c1	12.1%	nt	0.9%	nt	0.5%	-23.7%	nt	nt
Cc1ccc(CN2CCC(C(=O)NCCC(C)C)CC2)o1	-12.2%	5.8%	5.6%	-0.1%	1.1%	-23.2%	16.2%	?
CN1CCN(S(=O)(=O)c2ccc(NC(=O)c3ccccc3F)cc2)CC1	0.8%	nt	1.5%	nt	6.6%	4.5%	nt	nt
O=C(c1ccccc1)C1CCN(C(=O)C2CCC(=O)N(Cc3ccccc3F)C2)CC1 (stereo unspecified)	-13.9%	nt	-7.5%	nt	-6.9%	-17.0%	-0.6%	4.6%
CC1CN(S(=O)(=O)N2CCOCC2)CCN1S(=O)(=O)N1CCOCC1 (stereo unspecified)	12.2%	nt	-0.3%	nt	nt	-24.3%	-1.2%	10.1%[46.1 µM]
O=C(CSc1nc2nc(-c3cccs3)cc(C(F)(F)F)c2c(=O)[nH]1)Nc1c(F)c(F)c(F)c(F)c1F	6.9%	nt	0.8%	nt	0.3%	?	?	15.6%[46.1 µM]
